CDC25B-CDK2 inh = human CDC25B-CDK2/CyclinA binding inhibition; P30305+P24941; HTRF CDC25B-CDK2/CyclinA binding, anti-His/anti-Flag; hits give high values; z-score (test concentration not listed); 0.72% of 94,000 active;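 note: score is relative to mean and SD of negative controls; strong numbers were not always called active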
TAR Tat displ = HIV-1 TAR-Tat binding disruption; HIV-1 TAR RNA, Tat peptide displacement FRET; hits give high values; AID 1259389; 0.6% of 100,000 active; z-score (test concentration not listed);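 note: score is relative to mean and SD of negative controls; some compounds called inactive have numbers as strong as hits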
* hit, by the source's call; . = no result given.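 Rule for the calls: active = z-score from 3 up in half or more of its runs; inactive = the rest.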 The order is random, and some 0.87% of all compounds hit somewhere here.

cpd	Compound	CDC25B-CDK2 inh	TAR Tat displ
1	CC[C@H]1CN2CCc3cc(OC)c(OC)cc3C2C[C@@H]1CC1NCCc2cc(OC)c(OC)cc21 (some centres not stated)	.	1.8
2	CCOc1ccc(-c2noc(-c3nnn(-c4cc(Cl)ccc4OC)c3N)n2)cc1	.	0.8
3	COC(=O)c1c(NC(=O)COc2cccc(Cl)c2)sc2c1C(C(=O)OC)CC2 (configuration not stated)	-0.4	-0.23
4	Cc1cc(C)n(-c2nc3cc(Cl)ccc3nc2NCc2ccc3c(c2)OCO3)n1	-1.4	1.7
5	CCOC(=O)C(C#N)CCCOCC1CO1 (configuration not stated)	-2.7	.
6	CCn1nnc(-c2ccccc2N)n1	-0.55	1.2
7	COc1ccc(N2C(=O)C3N=NN(CC(=O)Nc4ccc(F)cc4F)C3C2=O)cc1OC (configuration not stated)	.	-0.35
8	COC(=O)[C@@H]1OC(=O)C2OC23[C@@]1(C)CCC1[C@]2(C)C(C[C@H](O)[C@]13C)C(C)(C)[C@H](OC(C)=O)C[C@@H]2OC(C)=O (some centres not stated)	.	0.33
9	O=C(Nc1nc2c(s1)CCc1ccccc1-2)c1ccco1	-0.05	2.5
10	O=C(Nc1ccc2nc3n(c(=O)c2c1)CCCCC3)C(=O)Nc1ccc(Cl)cn1	-1.1	-0.34

The list goes on.
cpd	Compound	CDC25B-CDK2 inh	TAR Tat displ
11	CCOc1nc(C)ccc1-c1noc(-c2ccccc2Cl)n1	0.53	1.6
12	CC1=C(c2ccc(F)cc2)S(=O)(=O)N=C1N1CCc2ccccc2C1	.	-0.06
13	Cc1onc(-c2c(Cl)cccc2Cl)c1C(=O)NC(=S)N1CCOCC1	-1.4	.
14	Cc1nn(CC(=O)N2CCCC2)c(=O)c2cc3cc(F)ccc3n12	1	0.1
15	O=C(CSc1ccccn1)Nc1nccs1	-1.4	1.4
16	Cc1ccc(S(=O)(=O)Nc2nc3ccccc3nc2Nc2ccc3c(c2)OCO3)cc1	0.71	0.51
17	Cc1cc(C)cc(N2C(=O)N(CC(=O)N3CCOc4ccc(C)cc43)C3CS(=O)(=O)CC32)c1 (configuration not stated)	-1.5	-0.75
18	CN(C)c1ccc(C2CC(=O)NC3=C2C(=O)CC(C)(C)C3)cc1 (configuration not stated)	-1.2	1.4
19	O=C(NC1CC1)C1CCN(c2ccc(Cl)cc2)C1=O (configuration not stated)	.	1.3
20	O=c1c(Br)c(N2CCCCC2)cnn1-c1ccccc1	-2.9	-0.79

(more compounds)
cpd	Compound	CDC25B-CDK2 inh	TAR Tat displ
21	CN1CCN(c2ccccc2Nc2c(-c3ccccc3)c(=O)c2=O)CC1	.	2.6
22	COCCCN1C(=O)c2cc3occc3n2CC1(C)C(=O)NC1CCCCC1 (configuration not stated)	.	0.24
23	O=C(COc1ccc(Br)cc1)Nc1cccc2nsnc12	-1.2	-1.3
24	COc1cc(-c2n[nH]c(=S)n2Cc2ccccc2)cc(OC)c1OC	-1.1	.
25	O=C(Cn1c(=O)c2cccn2c2ccc(F)cc21)NCCc1c[nH]c2ccccc12	.	-10
26	Nc1nc(C(=O)N2CCOCC2)nn1S(=O)(=O)c1ccc(Cl)cc1	-2.5	-1.1
27	CC(C)C(=O)Nc1ncc2c(n1)CC(c1cccs1)CC2=O (configuration not stated)	-1.7	-0.05
28	O=C(O)c1[nH]c(=O)[nH]c(=O)c1[N+](=O)[O-]	0.66	.
29	CC(C)CCNc1nc2ccccc2c2nc(-c3ccccc3)nn12	0.35	-0.14
30	Cc1ccc(S(=O)(=O)NCc2nnnn2-c2ccc(C)c(C)c2)cc1	.	1.6

Quoted from above, 3 compounds:
cpd	Compound	CDC25B-CDK2 inh	TAR Tat displ
28	O=C(O)c1[nH]c(=O)[nH]c(=O)c1[N+](=O)[O-]	0.66	.
29	CC(C)CCNc1nc2ccccc2c2nc(-c3ccccc3)nn12	0.35	-0.14
30	Cc1ccc(S(=O)(=O)NCc2nnnn2-c2ccc(C)c(C)c2)cc1	.	1.6

(next part)
cpd	Compound	CDC25B-CDK2 inh	TAR Tat displ
31	Cc1ccc(C(=O)Nc2cnc3cc(C)ccn3c2=O)cc1	-1.8	-2
32	COC(=O)c1cc(S(=O)(=O)NCCC(C)C)c[nH]1	.	1.9
33	Cc1cc(C)c(S(=O)(=O)NCc2cn3ccccc3n2)cc1C	-1.7	.
34	CCOC(=O)c1c(C)[nH]c(C)c1S(=O)(=O)NCC(=O)NC(C)C	.	0.95
35	Cc1oc2ncnc(N3CCOCC3)c2c1C(=O)NCCC(C)C	.	0.81
36	O=C(NCc1ccccn1)c1cc(Sc2ccc(F)cc2)nc2ccccc12	0.14	.
37	Cc1cc(Cl)ccc1Nc1nc(NCCN2CCOCC2)nc2c1cnn2C	.	0.63
38	Cc1ccccc1CNc1nc(N2CCN(CCO)CC2)nc2c1cnn2C	.	1.8
39	Cc1cccc2nc(Cn3c(=O)n(CCC(=O)NCc4ccco4)c(=O)c4ccccc43)cc(=O)n12	-1.6	.
40	CCCCN1C(=O)/C(=C2\SC(N3CCOCC3)=NC2=O)c2ccccc21	-3	.

Next section.
cpd	Compound	CDC25B-CDK2 inh	TAR Tat displ
41	CCOc1ccc(-c2[nH]nc3nc(-c4ccc(O)c(OC)c4)cc(C(=O)O)c23)cc1	-1.8	1.5
42	O=C(c1cccc(NC2=NC3CS(=O)(=O)CC3S2)c1)N1CCN(c2ncccn2)CC1 (configuration not stated)	-1.4	0.96
43	O=C(CSc1ccc2nnc(-c3ccc(Cl)cc3)n2n1)NCc1ccc2c(c1)OCO2	-1.2	.
44	Cc1ccccc1-n1nnc(-c2nc(-c3ccc4c(c3)OCO4)no2)c1N	.	0.95
45	O=C(O)c1cccc(Nc2nc(-c3ccc(Cl)cc3)cs2)c1	-2	.
46	O=S(=O)(Cc1ccc(Cl)cc1)CC(O)COc1ccc(F)cc1 (configuration not stated)	-1.1	.
47	CCCc1cc(=O)oc2cc(C)c3c(C)coc3c12	-1.4	.
48	CC1CCN(c2ncc3c(n2)CCN(Cc2ccc(Cl)cc2)C3)CC1	.	0.32
49	N#Cc1c(NC(=O)CN2CCOCC2)sc2c1CCCC2	-2.1	-0.04
50	CC1(C)CC(=O)C2=C(C1)OC(N)=C(C#N)C21CCCCC1	-2.1	.

The last 6 compounds of the part above lead into the next:
cpd	Compound	CDC25B-CDK2 inh	TAR Tat displ
45	O=C(O)c1cccc(Nc2nc(-c3ccc(Cl)cc3)cs2)c1	-2	.
46	O=S(=O)(Cc1ccc(Cl)cc1)CC(O)COc1ccc(F)cc1 (configuration not stated)	-1.1	.
47	CCCc1cc(=O)oc2cc(C)c3c(C)coc3c12	-1.4	.
48	CC1CCN(c2ncc3c(n2)CCN(Cc2ccc(Cl)cc2)C3)CC1	.	0.32
49	N#Cc1c(NC(=O)CN2CCOCC2)sc2c1CCCC2	-2.1	-0.04
50	CC1(C)CC(=O)C2=C(C1)OC(N)=C(C#N)C21CCCCC1	-2.1	.
51	CCOc1ccc(Nc2cnnc(Nc3ccc(OCC)cc3)n2)cc1	-1.9	2.8
52	CCCn1c(=O)c2sccc2n2c(CCCC(=O)NCc3cccs3)nnc12	.	1.2
53	CC1CCC(NC(=O)c2cc3oc4ccccc4c3n2C)CC1 (configuration not stated)	-0.16	-0.54
54	COc1ccc(-c2cc(C)no2)cc1S(=O)(=O)N(C)CCCc1ccco1	.	1
55	CCN(CC)Cc1c(O)ccc2c(=O)c(-c3ccc(OC)c(OC)c3)c(C(F)(F)F)oc12	-3.5	1.5
56	O=C(NC1CCCC1)c1cc2n(n1)C(C(F)(F)F)CC(c1ccco1)N2 (configuration not stated)	-0.3	0.37
57	O=C(O)CCC(=O)Nc1sc2c(c1C(=O)O)CCCC2	-3.5	.
58	OC(CNCc1ccco1)COc1ccccc1 (configuration not stated)	0.22	0.77
59	CC(C)(O)CC[C@@H](O)[C@@](C)(O)[C@H]1CC[C@@]2(O)C3=CC(=O)[C@@H]4C[C@@H](O)[C@@H](O)C[C@]4(C)[C@H]3CC[C@]12C	.	-0.25
60	CCc1nnc2sc(-c3cccc(Cl)c3)nn12	-1.2	-0.79

Later entries
cpd	Compound	CDC25B-CDK2 inh	TAR Tat displ
61	c1ccc(-c2cc3ccsc3o2)cc1	-0.26	-2.2
62	CCOCCCNc1nc(NCc2ccc(C)cc2)c2cnn(C)c2n1	.	1
63	O=C(O)CSc1nnc(COc2ccc(Cl)cc2)n1-c1ccccc1	-1.6	0.27
64	CC1=Nn2c(Cn3c(C)nc4ccccc43)nnc2SC1	.	2.1
65	N#Cc1nc(/C=C/c2ccc(F)cc2)oc1N1CCN(Cc2ccccc2)CC1	-1.8	-0.92
66	Cc1ccc(OCC(O)Cn2cnc3ccccc32)c(C)c1 (configuration not stated)	0.72	0.73
67	Cc1ccc(CNS(=O)(=O)c2cc(-c3onc(C)c3C)ccc2C)cc1	.	1.5
68	O=C1NN(c2ccccc2)C(=O)C2C3c4ccccc4C(c4ccccc43)C12 (configuration not stated)	-1.1	2.3
69	Cc1ccc2ncc(S(=O)(=O)c3ccccc3)c(NCc3ccccc3)c2c1	-0.89	0.75
70	Cc1nn(CC(=O)N2CCN(C)CC2)c(=O)c2ccccc12	-2.5	.

Continued:
cpd	Compound	CDC25B-CDK2 inh	TAR Tat displ
71	Brc1cccc(CN2CCc3nc(Nc4ccc5c(c4)OCO5)ncc3C2)c1	.	0.06
72	Cc1ccc(-c2n[nH]c(=O)c3ccccc23)cc1S(N)(=O)=O	-3.1	1.7
73	Oc1ccc(Br)cc1CN1CCN(Cc2ccc3c(c2)OCO3)CC1	-1.2	0.68
74	Cc1cc(S(=O)(=O)[C@H]2CS(=O)(=O)C[C@@H]2NC2CC2)ccc1F	-1.1	0.42
75	O=C(Oc1ccc(F)cc1)c1cccs1	-0.77	0.72
76	COCCn1c(SCC(=O)NCC2CCCO2)nnc1-c1c[nH]c2ccccc12 (configuration not stated)	-1.7	.
77	CC1=C2C(=NCCN1)C(=O)N(c1ccccc1)C2c1cccs1 (configuration not stated)	1.8	-7.3
78	CC(C)(C)c1ccc(OCc2nn3cnnc3s2)cc1	-1.3	-0.23
79	O=C1CCC([N+](=O)[O-])C(c2ccc(Br)cc2)N1 (configuration not stated)	.	1.6
80	CSc1cc(-c2ccncc2)nc(-c2cccs2)c1	-2.4	.

The list continues:
cpd	Compound	CDC25B-CDK2 inh	TAR Tat displ
81	CCC(=O)N1CCc2cc(S(=O)(=O)Nc3ccc(Cl)cc3)ccc21	-2.4	.
82	CCCCCOC(=O)C1=C(C)NC2=C(C(=O)CCC2)C1c1ccc(OCC)c(OC)c1 (configuration not stated)	-2.1	1.1
83	OC(COc1ccc(F)cc1)CN1CCN(c2ccccc2F)CC1 (configuration not stated)	-1.2	.
84	CCOC(=O)COc1ccccc1C(O)C#N (configuration not stated)	-1.9	.
85	O=C(Nc1ncc(Cc2ccccc2)s1)C1=Cc2cc(Cl)ccc2OC=C1	-1.2	0.19
86	Nc1cc(-c2ccccc2)n2c(n1)nc1ccccc12	-0.44	.
87	CCC12CN3CC(CC)(CN(C1)C3c1ccc3c(c1)OCO3)C2O (configuration not stated)	-1.6	0.1
88	Cn1c(=O)n(C)c2cc(C(O)COc3ccc(CNCc4ccco4)cc3)ccc21 (configuration not stated)	-0.33	0.05
89	CCCN1C(=O)C(O)(CC(=O)c2ccncc2)c2cc(Br)ccc21 (configuration not stated)	-1.6	1.5
90	COc1ccc(-c2nc3ncccn3c2Nc2ccc(OC)c(OC)c2)cc1	-1.5	0.46

Other entries follow:
cpd	Compound	CDC25B-CDK2 inh	TAR Tat displ
91	Fc1cccc(CN2CCc3nc(Nc4ccc5c(c4)OCCO5)ncc3C2)c1	.	0.98
92	CCOC(=O)/C(C#N)=C/N1CCN(c2ccc(C(F)(F)F)cc2[N+](=O)[O-])CC1	0.31	.
93	Cc1ccc(-n2c(C)c(C)c3c2ncn2nc(-c4ccco4)nc32)cc1	-0.85	1.3
94	Cc1c(C(=O)C(=O)NCc2ccccn2)c2ccccc2n1C	-1.2	-1.4
95	Cc1cc(=O)n2nc(N3CCCC(C(=O)NC4CCCCC4)C3)sc2n1 (configuration not stated)	-0.45	3.9
96	CN(Cc1ccco1)C(=O)C1CCC(CNS(=O)(=O)c2ccc3c(c2)CCCC(=O)N3)CC1 (configuration not stated)	.	1.8
97	CCOc1cc(C2CC(=O)N3CN(c4ccccc4)CSC3=C2C#N)cc(Br)c1O (configuration not stated)	8.8*	31*
98	CC1(C)Cc2ccccc2/C(=C/SC(=N)N)N1	-3.2	.
99	Cc1nn2c(=O)cc(CSc3nc(-c4ccccc4)nc4cc(=O)[nH]n34)nc2s1	.	0.72
100	CC(=O)OCCNc1cc(N(C)C)c2noc3c2c1C(=O)c1ccccc1-3	-0.8	-3.9

Remaining list, next part
cpd	Compound	CDC25B-CDK2 inh	TAR Tat displ
101	CNC(=O)c1cc2n(n1)CC(C)(C(=O)NC1CCCC1)N(C)C2=O (configuration not stated)	.	-0.47
102	O=C(CCc1nc(-c2ccc(Cl)cc2)no1)Nc1nccs1	-1	0.79
103	CC(C)c1nc2n[nH]c(N)c2c2c1CCCC2	-1.4	.
104	Cc1oc(-c2ccc(Cl)cc2)nc1Cn1c(=O)cc(C(F)(F)F)c2c(C)nn(C)c21	.	-0.63
105	CC(=O)N1c2ccc(S(=O)(=O)N3CCCC3)cc2CC1C(=O)NCc1cccs1 (configuration not stated)	.	1.4
106	O=C(O)CCSCSCCC(=O)O	-1.2	.
107	CCC1CSc2nc3ccsc3c(=O)n21 (configuration not stated)	-0.41	.
108	C=CCOC(=O)C1C(c2ccc(C(C)(C)C)cc2)c2c([nH][nH]c2=O)CC1(C)O (configuration not stated)	-1.3	0.6
109	Cc1nc(-c2csc(S(=O)(=O)Nc3cccc(Cl)c3C)c2)no1	.	0.93
110	CCN1CCN(c2nnc(-n3cccc3CNc3cccc(SC)c3)s2)CC1	.	0.52
111	COCCNC(=O)c1noc2c1CSc1ccccc1-2	-1.8	0.52

Screens deposited in PubChem by Center for Chemical Genomics, University of Michigan.
